Source: PubChem BioAssay
MT1-MMP act inh = MT1-MMP (human) activation inhibition. 360,000 compounds, 0.061% hits. P50281. AID 651647. GFP/RFP ratio change, % at 20 µM. HT1080 RFP-PRO-GFP cells, GFP/RFP ratio fluorescence, overnight; percent of plate control window, DMSO zero;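 active means GFP/RFP ratio change of at least 30% with cell ATP level not reduced by more than half and red fluorescence within 50% of control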; further: strong numbers were not always called active
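Test system: HT1080 cells expressing an RFP-PRO-GFP fluorescent reporter construct / Compound dosing: single-point 20 µM compound, 1% DMSO / Schedule: cells overnight before dosing, compound overnight, 37 °C, 5% CO2 / Evaluation: GFP/RFP fluorescence ratio / Control set: DMSO and RFP-L50D-GFP cell wells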
HIV Env fusion = HIV envelope-mediated fusion inhibition; AID 651610; 360,000 compounds, 1.1% hits; HeLa-JRFL Env/CEM21 cell fusion, luciferase; inhibition, % at 12.3 µM;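 active means mean replicate inhibition score of at least 50 and every replicate individually at or above 50; inconclusive means only one of the two criteria met; inactive means mean below 50 and not all replicates reaching 50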;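 further: 0% = plate neutral controls and 100% = maraviroc near 300 nM; one replicate is shown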
Yeast UUG start = alters start codon recognition fidelity in yeast. AID 602363. activity score, % at 18.7 µM. 350,000 compounds, 0.13% hits. S. cerevisiae UUG-firefly luciferase reporter, luminescence/redox ratio;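 active means replicate mean at a twofold rise or more, about +100% in these data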;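 further: firefly luciferase made from a UUG start codon reports start codon fidelity; reporter light over untreated wells divided by growth signal over untreated wells; some hits fall short of that in this replicate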
Rce1 inh = inhibitors of yeast Ras-converting enzyme; Q03530; calls only; AID 2563; yeast membranes, quenched prenylated peptide cleavage fluorescence; 290,000 compounds, 0.27% hits;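 active means fall in fluorescence gain of 50% or more versus controls, with final raw signal at or below 3038400; inconclusive means same 50% fall but final raw signal above 3038400; inactive means fall in fluorescence gain under 50%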;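 further: plate controls were neutral control wells for no effect and wells lacking membranes for full effect; tested at 10 µM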
Target sequence (Q03530 whole entry, looked up): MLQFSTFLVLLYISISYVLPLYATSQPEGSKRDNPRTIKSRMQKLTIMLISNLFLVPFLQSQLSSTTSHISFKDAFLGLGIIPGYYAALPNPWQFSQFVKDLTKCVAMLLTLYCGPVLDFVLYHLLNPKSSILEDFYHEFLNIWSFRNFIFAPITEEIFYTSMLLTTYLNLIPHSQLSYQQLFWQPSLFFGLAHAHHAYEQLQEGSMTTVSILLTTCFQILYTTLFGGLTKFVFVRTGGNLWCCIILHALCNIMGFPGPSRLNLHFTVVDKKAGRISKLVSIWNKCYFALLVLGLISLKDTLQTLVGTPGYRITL
eIF4H inh = inhibitors of RNA binding by human eIF4H | eIF4H fluorescence polarization binding assay | inhibition, % at 35 µM | 290,000 compounds, 0.94% hits;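 active means 50% or more with normal probe brightness, or confirmed in later tests; inconclusive means above 50% with abnormal brightness, or retests that disagree; inactive means below 50% or failed in later tests; about a fifth of its hits are not listed in these tables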;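 further: calls also rest on retests at 20 µM and on dose response follow-up; 0% = protein and probe with vehicle and 100% = probe without protein; strong numbers were not always called active; many hits fall short of the cut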
CSC inhib = blocks cancer stem cells; AID 2717; cancer stem cell-like cells viability, luminescence; 300,000 compounds, 1.1% hits; inhibition, % at 7.5 µM;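 active means mean at 75% or more and at least half the replicates too; inconclusive means mean and replicates disagree; tested in HMLE shEcad cells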;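 further: 0% = median of negative and 100% = median of positive control wells; the first replicate is given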
PABP polyA inh = blocks human PABP binding to poly(A) RNA | AID 2014 | fluorescence polarization | inhibition, % at 35 µM | P11940 | 290,000 compounds, 1% hits;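 active means 50% or more with normal probe brightness, or confirmed in later tests; inconclusive means above 50% with abnormal brightness, or retests that disagree; inactive means below 50% or failed in later tests; about a fifth of its hits are not listed in these tables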;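 further: calls also rest on retests at 20 µM and on dose response follow-up; controls were probe without protein and protein plus probe with vehicle; some compounds called inactive have numbers as strong as hits; many hits fall short of the cut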
Target sequence (P11940 whole entry, looked up): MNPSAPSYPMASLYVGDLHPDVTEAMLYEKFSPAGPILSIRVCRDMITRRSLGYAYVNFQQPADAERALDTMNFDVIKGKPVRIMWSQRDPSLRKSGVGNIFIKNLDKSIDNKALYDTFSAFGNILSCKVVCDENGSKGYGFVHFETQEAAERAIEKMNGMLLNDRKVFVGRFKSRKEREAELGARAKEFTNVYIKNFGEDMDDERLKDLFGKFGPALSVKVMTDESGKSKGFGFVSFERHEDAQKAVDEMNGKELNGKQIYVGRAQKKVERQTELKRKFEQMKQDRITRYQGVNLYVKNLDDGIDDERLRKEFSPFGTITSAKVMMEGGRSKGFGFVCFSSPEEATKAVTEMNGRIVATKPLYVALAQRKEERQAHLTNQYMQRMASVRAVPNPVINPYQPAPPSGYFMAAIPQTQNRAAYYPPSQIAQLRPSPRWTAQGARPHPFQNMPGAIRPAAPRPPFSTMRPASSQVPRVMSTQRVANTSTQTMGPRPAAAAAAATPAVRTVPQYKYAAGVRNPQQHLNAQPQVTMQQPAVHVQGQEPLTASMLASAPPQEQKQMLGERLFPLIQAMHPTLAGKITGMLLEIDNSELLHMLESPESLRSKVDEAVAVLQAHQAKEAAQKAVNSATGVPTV
eIF4H inh retest = further read-out of eIF4H inh, marked with its call; inhibition, %; compound at 20 µM; confirmation average;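 mean of two retest wells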
PABP polyA inh retest = also measured in PABP polyA inh; calls as there; inhibition, %; compound at 20 µM; confirmation repeats;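 mean of two retest wells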
MT1-MMP act inh RFP = further read-out of MT1-MMP act inh, marked with its call; RFP signal change, %; measured here: RFP expression control read;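 0 = vehicle wells; hits needed this value within 50% of zero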
Starred values were filed as active, the others as inactive; i = inactive; ? = inconclusive; . = no result given. These rows are one share of the data (hit frequency here may not be typical).

SMILES | MT1-MMP act inh | MT1-MMP act inh RFP | HIV Env fusion | Yeast UUG start | Rce1 inh | eIF4H inh | CSC inhib | PABP polyA inh | others
c1cnc(N2CCSCC2)nc1 | 0 | 7 | . | . | i | -2 | -9 | -11
O=S(=O)(NCC1CCCO1)c1cnc(Cl)c(Cl)c1 (configuration not stated) | -3 | -1 | -7 | . | i | 5 | -14 | 1
N=c1ncn(CC(O)CN2CCOCC2)c2nc(N3CCOCC3)[nH]c12 (configuration not stated) | -2 | 2 | 0 | -2 | i | -10 | -2 | -2
COc1ccc([N+](=O)[O-])cc1NC(=O)CSc1ccc2ccccc2c1 | -1 | -16 | 42 | -25 | i | -11 | 14 | -6
Cc1ccc(N2CCN(CCCN3C(=O)C4CCCN4C3=O)CC2)cc1 (configuration not stated) | 8 | 5 | . | . | i | 6 | -1 | 2
Cc1c(CC(=O)NCC(=O)O)c(=O)oc2cc3oc4c(c3cc12)CCCC4 | 3 | 5 | 6 | 7 | i | -6 | 15 | 19
Cc1ccc(C(=O)NC(=S)Nc2ccc(S(=O)(=O)N(C)c3ccccc3)cc2)cc1 | 0 | -1 | . | -15 | i | 0 | -9 | 8
O=C(NCc1ccccn1)c1c(O)c2cccc3c2n(c1=O)CC3 | 2 | 11 | . | -7 | i | 1 | -12 | -5
CCOc1ccc(N(C(=O)c2cnccn2)C(C(=O)NC2CCCCC2)c2ccc(O)cc2)cc1 (configuration not stated) | -5 | -5 | 23 | -16 | i | 1 | 13 | -3
CCCn1c(SCC(=O)Nc2cccc(F)c2)nc(O)cc1=O | -4 | 6 | 10 | -5 | . | . | 21 | .
CCOC(=O)C1CCN(C(=O)C2CCN(S(=O)(=O)c3ccc4ccccc4c3)CC2)CC1 | -6 | -3 | 12 | -9 | i | -7 | -4 | 8
CC1(C)CC2(OC2c2ccccc2)C(=O)c2ccccc21 (configuration not stated) | -4 | -3 | 16 | -16 | . | . | . | .
O=c1c2sc3nc(N4CCOCC4)c4c(c3c2nnn1Cc1ccccc1)CCCC4 | 6 | 6 | . | -14 | i | 2 | -8 | -1
O=C(c1ccc(CS(=O)(=O)c2ccccc2)o1)N1CCN(c2ccccc2)CC1 | 11 | 0 | 3 | -4 | i | 93* | -7 | 28* | eIF4H inh retest=73*;PABP polyA inh retest=62*
CCOC(=O)/C=c1\s/c(=C\c2ccc(C)cc2)c(=O)n1CC(=O)NCc1ccco1 | 2 | 0 | . | 13 | i | -6 | 7 | -8
COc1ccc(Cc2nnc(SCC(=O)Nc3cc(Cl)ccc3OC)[nH]c2=O)cc1 | 2 | 0 | 11 | -19 | i | . | -7 | .
Cc1ccc(CN2CCC2(C)C(=O)NC(C)C)cc1 (configuration not stated) | 2 | 3 | -7 | -10 | . | . | . | .
CCOC(CNC(=O)C1CCN(S(=O)(=O)c2ccc3nc4c(c(C(=O)O)c3c2)CC(C)CC4)CC1)OCC (configuration not stated) | -4 | 6 | -1 | 3 | i | 2 | -34 | 14
COc1ccc(-c2nnc(SCC#CCO)o2)cc1OC | 5 | 2 | -5 | -3 | . | -8 | 2 | -10
Cc1ccc(S(=O)(=O)c2nc(-c3ccccc3Cl)oc2NCCCN2CCOCC2)cc1 | -1 | -3 | -2 | -8 | i | 0 | -24 | 3
COc1ccc(C)cc1S(=O)(=O)N(CC(=O)N1CCOCC1)Cc1ccccc1 | 2 | 2 | -17 | -7 | i | -2 | -4 | 8
CCOC(=O)C1(Cc2cccc(F)c2)CCN(CC(O)CO)CC1 (configuration not stated) | 4 | 8 | 7 | -3 | i | -1 | -17 | -3
CCOC(=O)CSc1nnc(CNC(=O)c2ccc(OC)cc2OC)n1C | -2 | 3 | -9 | . | i | -9 | 1 | -13
O=C(O)COCc1nc2ccccc2s1 | 8 | 8 | 12 | 6 | i | -10 | -17 | -14
O=c1cc(C(F)(F)F)nc(SCc2cccc3ccccc23)[nH]1 | 0 | 1 | 19 | 2 | i | 0 | 32 | 3
Cc1nc2c(C(=O)NCCC(C)C)c[nH]n2c(=O)c1Cc1ccccc1F | 1 | -1 | . | -20 | i | 11 | 58 | 13
COc1cc(/C=C(\C#N)C(N)=O)ccc1OCc1c(C)no[n+]1[O-] | 0 | -6 | -2 | -10 | i | 7 | -17 | 8
CCOC(=O)[C@H]1[C@H]2COc3ccc(C)cc3[C@@H]2N2C(=O)CN(Cc3ccccc3)C(=O)[C@@]12C | -4 | -4 | 3 | -10 | . | . | -5 | .
COc1ccccc1C(=O)NCCC(=O)N1CCCC(C)C1 (configuration not stated) | 0 | 2 | -4 | -4 | i | -11 | -19 | -4
COc1cc(/C=N/Nc2nc(N3CCCCC3)nc(N3CCCCC3)n2)ccc1OC(=O)c1ccco1 | . | . | . | . | i | -11 | -9 | -26
O=C1CCCc2oc3ccc(NS(=O)(=O)c4cccc5cccnc45)cc3c21 | 1 | -10 | 26 | -20 | i | 5 | -8 | -9
O=C1Nc2c(Br)cc(Br)c3cccc1c23 | -4 | -3 | 7 | . | i | -6 | . | -1
COc1ccc(N2CCN(S(=O)(=O)c3ccc(-c4cnc(C5CC5)o4)cc3)CC2)cc1 | -4 | -7 | . | -22 | i | -6 | -12 | -22
OC(COc1ccc(Br)cc1)CN1CCCC1 (configuration not stated) | 1 | 2 | 1 | -11 | i | -23 | -18 | -2
COc1cccc(NCc2ccc([N+](=O)[O-])s2)c1 | 1 | 3 | -3 | . | i | 16 | 5 | 8
Cc1cc(Cl)c2oc(C(=O)N(C)C3CCOC3)c(C)c2c1 (configuration not stated) | -1 | -1 | -35 | 11 | i | -2 | -12 | -3
c1cnc(-c2nnc3n2CCCCC3)cn1 | -4 | 1 | -24 | -9 | i | 7 | -4 | -9
O=C(NCCCN1CCN(Cc2ccccc2)CC1)C1CCN(S(=O)(=O)N2CCCC2)CC1 | -8 | -5 | . | 1 | i | -8 | -10 | 6
O=C(CSc1nnc(-c2ccc(O)cc2)n1Cc1ccco1)N1CCc2ccccc2C1 | 1 | -3 | -49 | -12 | i | -10 | -12 | 2
Nn1c(SCC(=O)NCCc2ccc(S(N)(=O)=O)cc2)nnc1C1CCCCC1 | -1 | -1 | -1 | -5 | . | . | 4 | .
CC(NC(=O)c1cccc(OC2CCN(C3CCN(C)CC3)CC2)c1)c1ccccc1 (configuration not stated) | -1 | -1 | -4 | -21 | i | 5 | -12 | 7
Cc1ccccc1OCCCCCCN1CCNCC1 | 6 | 3 | 8 | -14 | i | . | 72 | .
CC(C)NC(=O)c1ccc2c(=O)n(Cc3ccco3)c(=S)[nH]c2c1 | -4 | 2 | -12 | -19 | i | 8 | -25 | 8
COc1ccccc1C(=O)NCCC(=O)NCC1CCCO1 (configuration not stated) | -2 | -3 | . | -15 | . | . | -11 | .
COc1cc(OC)c(S(=O)(=O)Nc2ccccc2N2CCOCC2)cc1NC(C)=O | -1 | -1 | -2 | . | i | 2 | -8 | -2
COc1ccccc1C(=O)NC(CCSC)C(=O)NCC(c1cccs1)N1CCOCC1 (configuration not stated) | -3 | 4 | 5 | -15 | i | . | 0 | .
CCCCNC(=O)C1CCN(S(=O)(=O)c2ccc3c(c2)CC(C)N3C(=O)C2CC2)CC1 (configuration not stated) | -1 | -1 | -24 | -6 | i | -19 | -2 | -12
CCOC(=O)CSc1nc(=O)n2cccc(C)c2n1 | . | . | 5 | -4 | i | -8 | -10 | 8
COc1cc(C#Cc2c(-c3cncn3C)n(C)c3ccc(-c4ccc(OC)c(OC)c4)cc23)cc(OC)c1 | -1 | -3 | 16 | -24 | . | . | 49 | .
O=C(COc1ncnc2c(Cl)cc(Cl)cc12)Nc1cc([N+](=O)[O-])ccc1Cl | 6 | 5 | . | -10 | i | 5 | 8 | 18
Continuation.
SMILES | MT1-MMP act inh | MT1-MMP act inh RFP | HIV Env fusion | Yeast UUG start | Rce1 inh | eIF4H inh | CSC inhib | PABP polyA inh | others
Nc1ccc(CCC(=O)N2CCCC2)cc1 | 3 | 7 | 14 | 7 | i | 1 | . | 10
N#Cc1c(N2CCN(c3ccc(F)cc3)CC2)nc(N)c2c(N)nc3c(c12)CC(=O)N3C1CC1 | 1 | 2 | -7 | . | . | ? | . | 8.0* | PABP polyA inh retest=104*
CCOC(CNc1cc(C)nc2c(-c3ccccc3OC)c(C)nn12)OCC | -4 | -1 | 8 | -17 | i | -15 | -5 | 2
COc1ccc(-n2cnnc2SCC(=O)Nc2ccc(N3CCOCC3)cc2)cc1 | 6 | 3 | . | . | i | -4 | -10 | -22
Cc1ccc(Nc2cnn(C34CC5CC(CC(CC(=O)O)(C5)C3)C4)c(=O)c2Cl)cc1 | 1 | 3 | . | -7 | i | -2 | -4 | 4
CC1=C(C#N)S(=O)(=O)C(C#N)C(c2ccccc2)C1 (configuration not stated) | -11 | 2 | 4 | 7 | i | 17 | -3 | -8
CCCCCC(=O)Nc1cccc(C2=NOC3(C2)C[C@H](C(N)=O)N(C(=O)CC#N)C3)c1 (some centres not stated) | . | . | . | . | i | 103 | . | 67* | eIF4H inh retest=32;PABP polyA inh retest=61*
CCN1C(=O)[C@H]2[C@H]3CN=C(SCc4ccc(C(=O)OC)cc4)N3[C@@](C)(C(=O)OC)[C@H]2C1=O | 3 | 3 | 25 | -2 | . | . | . | .
CC12CCC(C(=O)N3CCCCCC3)(OC1=O)C2(C)C (configuration not stated) | 4 | 0 | . | -6 | i | -10 | 5 | -9
CCN(CC)CCCN(C(=O)c1cccc(C)c1)c1nc(-c2ccc(OC)cc2)cs1 | . | . | 24 | -26 | i | 4 | 7 | -12

The final 2 entries of the part above come first, to join the parts:
SMILES | MT1-MMP act inh | MT1-MMP act inh RFP | HIV Env fusion | Yeast UUG start | Rce1 inh | eIF4H inh | CSC inhib | PABP polyA inh | others
CC12CCC(C(=O)N3CCCCCC3)(OC1=O)C2(C)C (configuration not stated) | 4 | 0 | . | -6 | i | -10 | 5 | -9
CCN(CC)CCCN(C(=O)c1cccc(C)c1)c1nc(-c2ccc(OC)cc2)cs1 | . | . | 24 | -26 | i | 4 | 7 | -12
CCOC(=O)Cc1csc(CC(N)=O)n1 | -3 | 4 | -1 | . | i | 1 | -12 | -7
CCN1CCc2c(sc(NC(=O)c3ccc(S(=O)(=O)N(CC)c4ccccc4)cc3)c2C(N)=O)C1 | -45 | 1 | 12 | -7 | i | 32 | 5 | -7
COc1cccc2c(=O)c(C(=O)NCc3cccs3)c[nH]c12 | 8 | 11 | -72 | 4 | i | 5 | 26 | 0
O=C(O)c1cccc(-c2nc3ccccc3[nH]2)c1 | 0 | -10 | 32 | -72 | i | 2 | 2 | -6
CC(=O)Nc1ccc(N=NC2C(=O)N(C(N)=S)N=C2C)cc1 (configuration not stated) | 7 | 3 | 11 | -19 | i | -7 | -8 | -13
CN(C)S(=O)(=O)c1cccc(-n2sc3ccccc3c2=O)c1 | 3 | -4 | -9 | -20 | . | -8 | 11 | 0
CCc1cccc(NS(=O)(=O)c2c(C)nc3scc(C)n3c2=O)c1 | 3 | -5 | 2 | -5 | i | 0 | . | 5
CCCNC(=O)CCn1nc(-c2ccc(Cl)cc2)c2ccccc2c1=O | 1 | 5 | -37 | -10 | i | -7 | 6 | 5
Cc1cc(NC(=O)CN(C)C)c([N+](=O)[O-])cc1C | 0 | 2 | 1 | -13 | . | 2 | 12 | -10
CN(Cc1ccccc1F)Cc1cc(=O)oc2cc(O)c(Cl)cc12 | -3 | -5 | 8 | 2 | i | 10 | -10 | 11
O=C(NCCc1csc(-c2cccc(F)c2)n1)c1ccco1 | -1 | 1 | 6 | -28 | i | . | -7 | .
